HSV replic up – HSV replication enhancement. HSV replication augmentation in cells, fold increase. maximum fold increase. 220,000 tested, 0.005% active;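 active = peak rise of 1.5-fold or more in the series; tested in PC3 cells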;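 note: first round at 10 µM; read as green reporter fluorescence; hits show the peak of a series up to 25 µM; 1 = signal of infected wells without compound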
RGS16-Gao HTS – regulators of human RGS16-Galphao interaction. O15492+P09471. bead-based flow cytometry RGS16-Galphao binding, fluorescence; actives lie on both sides. binding response (% of control), % at 10 µM. 220,000 tested, 0.38% active. AID 1441;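 active = below 25% or above 175%, edge rows of some plates excepted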;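 note: Galphao activated by GDP with aluminum fluoride before binding; 100% = wells without compound and 0% = beads without RGS; some results beyond the cut were filed as inactive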
Target sequence (O15492 whole entry, looked up): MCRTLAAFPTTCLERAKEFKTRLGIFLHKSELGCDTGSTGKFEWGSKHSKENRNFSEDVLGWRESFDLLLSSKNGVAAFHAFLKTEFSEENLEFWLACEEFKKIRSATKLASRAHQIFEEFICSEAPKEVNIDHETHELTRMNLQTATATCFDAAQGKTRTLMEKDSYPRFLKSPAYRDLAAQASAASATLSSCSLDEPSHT
Target sequence (P09471 whole entry, looked up): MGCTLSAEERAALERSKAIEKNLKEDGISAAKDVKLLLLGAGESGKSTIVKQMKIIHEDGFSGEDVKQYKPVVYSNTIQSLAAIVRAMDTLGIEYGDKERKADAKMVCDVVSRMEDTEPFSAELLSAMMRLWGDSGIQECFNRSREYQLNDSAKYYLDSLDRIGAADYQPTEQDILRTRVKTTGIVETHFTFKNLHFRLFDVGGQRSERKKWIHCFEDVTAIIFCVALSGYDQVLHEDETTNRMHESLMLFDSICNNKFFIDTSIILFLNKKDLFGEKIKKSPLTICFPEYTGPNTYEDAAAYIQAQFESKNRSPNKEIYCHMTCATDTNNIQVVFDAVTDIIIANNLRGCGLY
GALR2 agonist – activates the human galanin receptor 2 | activation, %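 (tested at 5 µM)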 | 140,000 tested, 0.48% active | O43603 | GALR2-expressing cells, agonist activation read-out;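 active = above mean plus 3 SD of all compounds, about 5% in these data, not always enough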;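 note: 0% = vehicle buffer wells and 100% = reference agonist at full effect; tested in CHO reporter cells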
Target sequence (O43603 whole entry, looked up): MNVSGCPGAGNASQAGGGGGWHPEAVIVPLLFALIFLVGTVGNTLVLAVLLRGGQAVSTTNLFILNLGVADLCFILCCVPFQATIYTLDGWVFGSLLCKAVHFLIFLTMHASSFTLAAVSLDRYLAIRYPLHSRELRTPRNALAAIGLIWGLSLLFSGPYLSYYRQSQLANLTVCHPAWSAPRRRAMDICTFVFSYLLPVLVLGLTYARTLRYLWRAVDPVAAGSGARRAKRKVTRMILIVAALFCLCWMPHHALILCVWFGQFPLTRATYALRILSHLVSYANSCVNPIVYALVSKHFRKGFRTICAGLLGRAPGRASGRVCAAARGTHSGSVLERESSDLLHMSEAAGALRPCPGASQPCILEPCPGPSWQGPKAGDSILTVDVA
Insulin prom inh – TRM-6 insulin promoter activity inhibition; TRM-6 cells (human fetal islet line), insulin promoter-eGFP reporter, imaging; reporter expression induced with tamoxifen; inhibition, % at 2 µM; 130,000 tested, 0.9% active;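 active = inhibition above the mean plus 3 SD, with well images judged a real hit on visual review, cut at about 60% in these data, passing the limit was not always enough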
PKD1 kinase inh – blocks activity of human protein kinase D1; Q15139; PKD1 kinase fluorescence polarization assay; inhibition, %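 (about 10 µM by stock and volumes)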; 200,000 tested, 0.056% active;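 active = inhibition of 50% or more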;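 note: controls were vehicle for no effect and a reference inhibitor for full effect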
Insulin prom inh cell count – second read-out of Insulin prom inh, no call of its own (marks repeat the call); normalized cell count, %; measured here: cell count, toxicity; reference of the scale not given here;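 cells exposed to compound for 48 h; stained nuclei by imaging scaled within each plate; lower means fewer cells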
HSV replic up primary fold – further read-out of HSV replic up, marked with its call; fold increase; compound at 10 µM; measured here: primary screen fold increase 10 uM; tested in PC3 cells;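 GFP signal in the first replicate; 1 = infected wells without compound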
An asterisk follows results filed as active; i = inactive; . = no result given.

The opening five compounds (preview)
Structure	HSV replic up	HSV replic up primary fold	RGS16-Gao HTS	GALR2 agonist	Insulin prom inh	Insulin prom inh cell count	PKD1 kinase inh
O=C(CN1CCOCC1)Nc1ccc(S(=O)(=O)NC2CCCCC2)cc1	i	0.93	97	-1.3	-200	104	-12
Cc1ccc(N2CCN(C(=O)c3ccccc3Br)CC2)c(C)c1	i	0.92	93	0.1	12	113	3
NC(=O)[C@@H]1CCCNc2c(I)cc([N+](=O)[O-])cc2C(=O)N[C@@H](CCCN=C(N)N)C(=O)N[C@@H](CCCN=C(N)N)C(=O)N1	i	0.93	102	-2.0	14	137	3
CCOc1ccccc1C(=O)Nc1nnc(CC)s1	i	0.92	101	3.0	.	.	-9
COc1cc(NC(=S)Nc2cccnc2)cc(OC)c1	i	1	99	-1.1	.	.	-7

All compounds of this part, from the first entry:
Structure	HSV replic up	HSV replic up primary fold	RGS16-Gao HTS	GALR2 agonist	Insulin prom inh	Insulin prom inh cell count	PKD1 kinase inh
O=C(CN1CCOCC1)Nc1ccc(S(=O)(=O)NC2CCCCC2)cc1	i	0.93	97	-1.3	-200	104	-12
Cc1ccc(N2CCN(C(=O)c3ccccc3Br)CC2)c(C)c1	i	0.92	93	0.1	12	113	3
NC(=O)[C@@H]1CCCNc2c(I)cc([N+](=O)[O-])cc2C(=O)N[C@@H](CCCN=C(N)N)C(=O)N[C@@H](CCCN=C(N)N)C(=O)N1	i	0.93	102	-2.0	14	137	3
CCOc1ccccc1C(=O)Nc1nnc(CC)s1	i	0.92	101	3.0	.	.	-9
COc1cc(NC(=S)Nc2cccnc2)cc(OC)c1	i	1	99	-1.1	.	.	-7
O=C(O)COc1ccccc1/C=N/NC(=O)/C(=C\c1ccc2c(c1)OCO2)NC(=O)c1ccccc1	i	0.97	103	.	50	89	-1
CCOC(=O)c1oc2nc(CC(C)C)c3c(c2c1N)CCC3	i	0.88	102	-0.6	6	123	-7
CCOC(=O)c1cn2nc(Oc3cccc(F)c3)ccc2n1	i	0.92	101	.	.	.	.
O=C1/C(=C\c2cccs2)SC(=S)N1C1CCS(=O)(=O)C1 (centres undefined)	i	0.76	110	.	26	208	-3
Cn1c(=O)[nH]c(=O)c2c1nc(N1CCOCC1)n2CCSc1nc2ccccc2[nH]1	i	0.83	101	-2.4	44	87	-4
Cc1cc(C(=O)N/N=C/c2ccccc2)c(C)o1	i	0.88	104	.	.	.	.
c1ccc(-c2nc(-c3ccncc3)no2)cc1	i	0.99	92	-2.3	.	.	-9
COc1ccc(Nc2ccc(Nc3ccc(OC)cc3)nn2)cc1	i	1.1	145	-1.4	41	55	-6
C=CCn1c(CCNC(=O)c2cccs2)nnc1SCC(=O)c1ccc(Br)cc1	i	0.82	106	-0.2	7	79	-2
O=C(O)CCC(=O)CCC(=O)c1ccccc1	i	0.89	103	-2.6	38	108	-10
CCN1C=CC(=C2C(=O)c3ccccc3C2=O)C=C1	i	0.66	98	-1.7	-9	105	2
Cn1c2ccccc2c2nnc(SCc3nnc(-c4ccccc4)o3)nc21	i	0.91	91	.	10	100	2
Cc1cccc(C)c1-n1c(=O)n(Cc2ccccc2)c(=O)c2[nH]cnc21	i	1	100	.	.	.	.
COc1ccc2c(-c3ccccc3)cc(SCC(N)=O)nc2c1	i	1.1	103	.	.	.	.
CN(C(=O)CSc1nnc(-c2ccccc2)n1C)C1CCS(=O)(=O)C1 (centres undefined)	i	0.97	102	.	0	89	-1
CCOc1ccc(N2CC(C(=O)Nc3ccc(S(=O)(=O)Nc4ncccn4)cc3)CC2=O)cc1 (centres undefined)	i	0.92	97	-1.0	5	76	-8
O=C(NCc1ccc(N2CCCC2=O)cc1)Nc1cccc2ccccc12	i	1.1	105	-0.8	-17	113	-5
Cc1ccc(S(=O)(=O)N2CCN(S(=O)(=O)c3ccccc3)C2c2ccc(N(C)C)cc2)cc1 (centres undefined)	i	0.92	102	-0.1	4	104	0
Cc1ccc(-c2nnn(CC(=O)N(CC3CCCO3)C(C(=O)NC(C)(C)C)c3ccc(F)cc3)n2)o1 (centres undefined)	i	0.92	102	1.4	25	107	-10
Cn1nccc1NC(=O)Nc1ccc(OC(F)(F)F)cc1	i	0.98	100	.	.	.	.
COc1ccc(NC(=S)Nc2cccc([N+](=O)[O-])c2)cc1	i	0.77	104	-3.2	-6	18	-9
CCCSc1ccc(C(=O)Nc2ccc(F)cc2F)cn1	i	0.88	103	.	.	.	-9
Nn1cnnc1N/N=C/c1ccc(Cl)c([N+](=O)[O-])c1	i	0.79	111	.	44	108	1
COc1ccc(Cl)cc1NC(=O)c1ccoc1C	i	0.91	102	-1.3	-54	84	-9
Cc1cc(=O)nc2c3ccccc3n(CC(=O)Nc3ccccc3Br)n12	i	0.95	101	.	.	.	.
CC(C)(C)NC(=O)/C(=C\c1cccnc1)NC(=O)c1ccco1	i	0.98	105	.	40	114	-1
O=C(CCN1C(=O)c2ccccc2C1=O)Nc1ccc(-c2nc3ccccc3s2)cc1	i	0.96	96	-1.1	22	93	4
COC(=O)Cn1cccc1C(=O)c1ccccc1	i	0.86	98	-0.2	-13	59	-6
Cc1cc(Cl)ccc1NC(=S)NCCCN1CCCC1=O	i	1	98	-1.0	.	.	7
COc1cc(/C=N/Nc2nc(=O)[nH]nc2C)ccc1O	i	1.1	104	.	.	.	.
CCOC(=O)CSc1nc(N2CCOCC2)c2c(c1C#N)CC(C)(C)N(C)C2	i	0.88	99	-0.8	.	.	-4
O=S1(=O)C=C(N2CCCCC2)c2ccccc21	i	0.97	103	-1.8	-45	56	-2
COc1ccc2[nH]c(=O)c(CN(Cc3cccs3)S(=O)(=O)c3cccc4nsnc34)cc2c1	i	0.68	98	-0.4	-35	89	0
COc1ccc(NC(=S)Nc2cccc(C)n2)cc1	i	0.88	99	.	.	.	.
Cc1ccc(C)c2[nH]c(=O)c(CCNC(=O)C(C)(C)C)cc12	i	0.89	104	-1.8	.	.	-7
CC(C)Cn1c(-c2ccccc2)nc2ccccc2c1=O	i	1	105	-2.6	17	86	5
CCn1c(SCC(=O)NCc2cccs2)nnc1-c1ccncc1	i	0.93	98	-1.3	-12	114	-3
Cc1ccc(NC(=O)CSc2nnc(Cn3cnc4ccccc43)o2)cc1	i	0.97	100	-0.4	.	.	-8
CC(C)(C)NC(=O)C(=O)N/N=C/c1cccs1	i	0.91	100	-3.3	12	132	-5
Cc1cc(C)c2c(CC(=O)O)coc2c1	i	0.89	97	-0.4	50	107	-5
N#Cc1nc(COc2ccc(Cl)cc2Cl)oc1N1CCN(c2ccccc2)CC1	i	0.91	103	-4.8	50	137	-10
COC(CNC(=O)c1ccc2c(c1)nc(C)n2-c1ccc(F)c(F)c1)OC	i	0.87	100	-2.9	0	118	-10
N#C/C(=C/Nc1ccccc1C(=O)O)C(N)=O	i	0.94	89	.	.	.	.
CCOc1ccc2nc(NS(=O)(=O)c3ccc4c(c3)n(C)c(=O)n4C)sc2c1	.	.	101	-2.2	6	81	-9
Cc1nc2cc3nc(C)sc3cc2s1	i	1	93	-0.3	.	.	-10
C=CCN1C(=S)N[C@@H]2CS(=O)(=O)C[C@@H]21	i	1.1	107	.	.	.	.
CCCCCNC(=O)N[C@H](C(=O)O)C(C)C	i	1.1	88	-2.2	0	106	1
Cc1nn(Cc2c(Cl)cccc2Cl)c(Cl)c1/C=C/C(=O)OCC(=O)NCC(F)(F)F	i	0.9	87	0.9	54	65	0
COc1ccc(N=Nc2cnc(C)nc2-c2ccccc2)cc1	i	0.95	102	-1.9	25	67	-9
CCOC(=O)c1cc2c3ccccc3n(CC)c2nc1N	.	.	94	-1.8	.	.	18
CCC(=O)Nc1cc(=O)[nH]c2ncnn12	i	0.99	98	-1.4	-23	86	-5
COc1cc(Cl)c(C)cc1NC(C)C(=O)Nc1cc(C(F)(F)F)ccc1N1CCOCC1 (centres undefined)	i	0.97	99	-1.3	-36	131	-4
COc1ccc(-c2nnn(CC(=O)N(Cc3ccccc3Cl)C(C(=O)NCC3CCCO3)c3ccco3)n2)cc1 (centres undefined)	i	0.93	102	-1.9	-16	90	-9
CN(CCc1ccccn1)C(=O)c1cccnc1Oc1ccc(Cl)cc1	i	0.99	103	.	.	.	.
O=C(CCCn1c(SCc2cc(=O)n3cc(Cl)ccc3n2)nc2ccccc2c1=O)NCC1CCCO1 (centres undefined)	i	0.89	85	.	.	.	.

Next section.
Structure	HSV replic up	HSV replic up primary fold	RGS16-Gao HTS	GALR2 agonist	Insulin prom inh	Insulin prom inh cell count	PKD1 kinase inh
COc1cc(-c2ccc(=O)[nH]n2)ccc1OC(F)F	i	0.93	101	.	.	.	.
N#Cc1ccc(NC(=O)COC(=O)CNC(=O)C2CCCCC2)cc1	i	1.1	93	-3.3	57	76	-1
COc1ccc(N(C(=O)c2cc3ccccc3oc2=O)C2C=CS(=O)(=O)C2)cc1 (centres undefined)	i	0.93	113	.	26	152	-2
C=C(C)COc1ccc(-c2nc(N)nc(C)c2Oc2ccccc2OC)c(O)c1	i	0.78	103	0.9	-67	181	-13
C=CCn1c(O)c(N=NC(=O)c2ccccc2NS(=O)(=O)c2cccs2)c2ccccc21	i	1.1	97	-2.3	.	.	-18
O=C(CSc1nnc2c(Cl)cc(Cl)cn12)N1CCN(c2ccc(F)cc2)CC1	i	0.91	56	-3.0	19	88	-9
CSc1ccc(/C=c2\s/c(=C\C(=O)C(C)(C)C)n(CC(=O)NCCC3=CCCCC3)c2=O)cc1	i	1.2	110	-1.5	-15	58	12
O=C(NC1CCCc2ccccc21)C1CCCN(S(=O)(=O)c2cnc[nH]2)C1 (centres undefined)	i	0.9	97	-0.9	.	.	-6
CCOC(=O)c1ccccc1NS(=O)(=O)c1ccc(OCC)cc1	i	0.67	100	-1.2	-74	80	3
CN(CC(=O)NCCN1CCN(c2ccccc2)CC1)S(=O)(=O)c1ccc2c(c1)CCC(=O)N2	i	0.86	105	-1.1	.	.	1
CCOC(=O)c1cc(C(=O)c2cccs2)n2ccc(C(C)=O)cc12	i	0.84	89	-0.8	29	81	1
O=C(NCc1ccco1)C1CC(=O)N(CCc2ccccc2)C1 (centres undefined)	i	0.97	107	-0.2	-29	146	-17
CC(C)N(C)C(=O)C(=O)c1cccn1-c1cccc(Cl)c1C#N	i	1	103	.	-127	71	-3
O=C(Cn1nc(-c2ccc(Cl)cc2)ccc1=O)NCCN1CCOCC1	i	1	106	-1.2	.	.	0
CSc1ccc(C(C(C(=O)c2cccs2)N2CCOCC2)N2CCOCC2)cc1 (centres undefined)	i	1.1	100	-1.4	.	.	17
O=c1cc(N2CCCCCC2)[nH]c(=O)n1-c1ccc(Cl)cc1	i	0.87	98	.	.	.	4
CS(=O)(=O)n1nc(-c2ccco2)nc1N	i	0.94	103	.	.	.	-4
S=c1[nH]cc(-c2ccccc2)[nH]1	i	0.97	100	.	.	.	.
CN(C)/C=C1/Nc2ccccc2C1=O	i	1.1	103	-1.6	.	.	-9
COc1ccccc1Nc1nc(Cl)nc(Nc2ccccc2OC)n1	i	0.92	103	.	.	.	-1
O=C(CN1C(=O)C(=O)N(Cc2ccco2)C1=O)c1c[nH]c2ccccc12	i	1.2	109	.	.	.	.
Cc1occc1-c1nnc(SCC(=O)Nc2ccccc2N2CCCCC2)n1C	i	0.79	100	-1.5	-28	61	-2
Cc1cccc(N=N/C(=C\O)C(=O)c2cccs2)c1	i	1	104	.	-31	96	-1
Cc1cc2ccccc2c(=O)n1CC(=O)NCC1COc2ccccc2O1 (centres undefined)	i	1	106	-3.6	.	.	-4
COc1ccc(OC)c(NC(=O)COC(=O)/C=C/c2ccc(Cl)cc2)c1	i	0.93	104	-1.4	31	96	-5
Clc1ccc(-c2nnc(Sc3nc4ccccc4o3)c3ccccc23)cc1	i	0.77	126	-2.4	33	141	-10
C=CCNC(=S)N/N=C(\C)c1cccc(OC)c1	i	0.98	102	-1.1	25	146	0
CCN(CC)CCOc1ccc2nc(N(C)C)sc2c1	i	1	98	-2.7	-7	88	8
CCC(=O)c1ccc(OC(=O)c2cccs2)cc1	i	0.69	97	-0.7	-35	85	1
Cn1c(CC(=O)Nc2ccccc2)n[nH]c1=S	i	1	112	.	-167	72	3
O=C1CN(C(=O)C2CCCC2)CCN1	i	0.92	120	0.8	34	163	2

Compounds were not picked by outcome. Share with any hit: about 1.3%.
